Bioassay records deposited in PubChem BioAssay by Johns Hopkins Ion Channel Center.
KCNQ2 enhance: potentiators of rat KCNQ2 potassium channel; CHO-K1 KCNQ2, FluxOR thallium flux fluorescence; stronger effect = higher value; hit rate 0.54% among 310,000; O88943; B-score at 10 µM; AID 2239;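 active means fluorescence ratio B-score at least 3 SD of library B-scores, with initial fluorescence B-score within 3 SD, cut at about 5.3 in these data; same plate scores as AID 2156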;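 further: B-score of peak minus minimum over baseline fluorescence ratio after K+ and Tl+ stimulus; positive B-score means potentiation of KCNQ2 with more thallium influx and brighter signal; only the inactives scoring about 0 or higher are listed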
Target sequence (O88943 whole entry, looked up): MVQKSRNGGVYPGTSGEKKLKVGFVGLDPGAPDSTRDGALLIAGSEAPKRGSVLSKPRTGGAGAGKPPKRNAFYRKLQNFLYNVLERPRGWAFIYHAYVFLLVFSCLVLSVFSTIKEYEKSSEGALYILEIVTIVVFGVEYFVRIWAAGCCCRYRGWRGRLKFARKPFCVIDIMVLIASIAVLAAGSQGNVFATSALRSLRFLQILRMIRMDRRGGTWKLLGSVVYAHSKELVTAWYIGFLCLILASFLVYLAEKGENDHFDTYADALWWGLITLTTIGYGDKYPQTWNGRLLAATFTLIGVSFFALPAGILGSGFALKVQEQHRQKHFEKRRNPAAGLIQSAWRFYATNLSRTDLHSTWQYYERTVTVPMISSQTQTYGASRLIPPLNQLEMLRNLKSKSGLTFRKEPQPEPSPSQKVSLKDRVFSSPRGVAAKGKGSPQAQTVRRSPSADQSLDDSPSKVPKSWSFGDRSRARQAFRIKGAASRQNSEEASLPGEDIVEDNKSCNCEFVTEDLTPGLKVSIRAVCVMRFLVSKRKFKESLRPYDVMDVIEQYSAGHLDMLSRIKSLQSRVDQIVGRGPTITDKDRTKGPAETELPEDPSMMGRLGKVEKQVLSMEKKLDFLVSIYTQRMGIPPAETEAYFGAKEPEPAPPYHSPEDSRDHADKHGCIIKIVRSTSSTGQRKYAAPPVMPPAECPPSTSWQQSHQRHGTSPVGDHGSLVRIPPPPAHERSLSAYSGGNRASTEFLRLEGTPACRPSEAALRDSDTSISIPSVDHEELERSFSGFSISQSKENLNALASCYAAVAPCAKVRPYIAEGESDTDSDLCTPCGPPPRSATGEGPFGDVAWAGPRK
KCNQ2 enhance baseline: further read-out of KCNQ2 enhance, marked with its call; B-score; compound at 10 µM; measured here: initial fluorescence intensity artifact check;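 brightness before thallium and not channel activity; 0 = typical well and far values either way flag optical interference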
An asterisk follows results filed as active; · = no result given. An excerpt. The share of hits here may be higher or lower than overall.

Second line of a record – KCNQ2 enhance	KCNQ2 enhance baseline
> O=C(c1cc(-c2cccnc2)nc2ccccc12)N1CCC2(CC1)OCCO2
→ 0.75	-0.08
> CCOC(=O)C(O)(c1ccc(N)c(OC)c1)C(F)(F)F (stereo unspecified)
→ 0.09	1.6
> COc1ccc(-n2c(O)c(C(C)=NCc3ccco3)c(=O)[nH]c2=O)cc1
→ 0.29	-3
> CN1CCN(c2c(F)cc([N+](=O)[O-])c(N)c2Br)CC1
→ 1.7	-0.09
> Cc1ccccc1-n1c(C)nc2sccc2c1=O
→ 0.48	-0.67
> O=C1NC(=S)N(c2ccccc2)C(=O)C1C(c1ccncc1)C1C(=O)NC(=S)N(c2ccccc2)C1=O (stereo unspecified)
→ 0.61	-1.2
> N=C1c2ccccc2CN1c1cccc([N+](=O)[O-])c1
→ 0.07	-0.71
> O=C(CN1CC(c2ccccc2)CC1=O)NCc1ccc(F)cc1 (stereo unspecified)
→ 0.85	-1.6
> COc1cc(O)cc2c1C(=O)O[C@@H](C)CCCC(=O)CCCCC2
→ 1.1	-0.24
> C=CCN1CC[C@]23c4c5ccc(O)c4OC2C(=O)CC[C@@]3(O)C1C5 (stereo partly specified)
→ 0.91	0.74
> CN1C(=O)c2ccccc2NC(=O)C1Cc1ccccc1 (stereo unspecified)
→ 2.2	-0.78
> COc1cc(CC2(CCc3ccncc3)C(=O)NC(=O)NC2=O)cc(OC)c1OC
→ 0.68	1.2
> CCCC[N+]1(C)[C@@H]2CC(OC(=O)[C@H](CO)c3ccccc3)C[C@H]1[C@@H]1O[C@@H]12 (stereo partly specified)
→ 2	-0.78
> O=c1[nH]c(O)c(/C=C2\C=NN=C2c2ccccc2)c(=O)[nH]1
→ 0.22	-1.8
> COc1cc(CN2CCCC(C(=O)c3sccc3C)C2)cc(Cl)c1O (stereo unspecified)
→ 0.02	-1.3
> Cc1cc(Br)ccc1N1C(=O)CC(=O)NC1=O
→ 0.28	-0.78
> O=C(O)c1ccc(N=Cc2c(O)n(Cc3ccc(F)cc3)c(=O)[nH]c2=O)cc1
→ 0.02	1.9
> O=c1[nH]c(=O)n(Cc2ccccc2)c(O)c1/C=C1\C=Nc2ccccc21
→ 0.36	0.85
> Cc1ccc(-n2c(O)c(C=NC3CCCCC3N)c(=O)[nH]c2=O)cc1C (stereo unspecified)
→ 0.96	0.44
> COc1ccc(OC)c(CN2CCN(C(=O)Cc3ccccc3)CC2)c1
→ 0.29	-0.29

Looked up above:
`COc1cc(O)cc2c1C(=O)O[C@@H](C)CCCC(=O)CCCCC2` | KCNQ2 enhance baseline: -0.24
`COc1ccc(OC)c(CN2CCN(C(=O)Cc3ccccc3)CC2)c1` | KCNQ2 enhance: 0.29

Remaining list, next part:
Second line of a record – KCNQ2 enhance	KCNQ2 enhance baseline
> CCCNC(=O)N1C2CCC1CC(O)(c1cccnc1)C2 (stereo unspecified)
→ 0.56	-0.2
> O=c1[nH]c(=O)n(-c2ccc(Cl)cc2)c(O)c1C=NCCN1CCCCC1
→ 0.11	-0.09
> COc1ccccc1NC1=NCCS1
→ 1.1	-1.1
> CC/C(=N\N1CCN(C)CC1)c1c(O)[nH]c(=O)[nH]c1=O
→ 0.95	0.03
> CS(=O)(=O)NNP(=O)(NNS(C)(=O)=O)NC(=O)c1ccc(Br)cc1
→ 0.01	0.6
> O=C(CN1CCOCC1)c1ccc2cc[nH]c2c1
→ 0.49	0.76
> CN1CCc2nc(SCC(=O)OC(C)(C)C)c(C#N)cc2C1
→ 0.37	0.76
> CCSc1nnc([C@@H](N)Cc2c[nH]c3ccccc23)o1
→ 0.4	-1.4
> O=c1[nH]c(=S)n(-c2ccccc2Cl)c(O)c1C=NCCN1CCNCC1
→ 1.6	0.13
> C[C@]12CC[C@@H](O)C[C@@H]1CC[C@@H]1[C@@H]2CC[C@]2(C)C(=O)CC[C@@H]12
→ 0.25	-2.2
> CC(C)N1OC2CC1c1nc3ccccc3n1C2 (stereo unspecified)
→ 1.8	-1.8
> O=C1CN=C(c2ccccc2)c2ccccc2N1
→ 0.12	0.14
> COc1cc2c(c(OC)c1OC)-c1ccc(C(=O)O)cc1[C@@H](NC(C)=O)CC2
→ 1.3	-2.3
> O=C(Cn1c(=O)n(CC2CS2)c2ccccc21)N1CCCCC1 (stereo unspecified)
→ 1.5	1.1
> O=C(Nc1cccc(OC(=O)N2CCCCC2)c1)N1CCCCC1
→ 0.87	-0.6
> CC(=O)NC(=O)NC(C)Cc1ccccc1 (stereo unspecified)
→ 0.26	5.5
> C[C@]12CC[C@H](OS(=O)(=O)O)CC1=CC[C@@H]1[C@@H]2CC[C@]2(C)C(=O)CC[C@@H]12
→ 0.09	·
> O=C(CN1C(=O)COc2ccccc21)N1CCC2(CC1)OCCO2
→ 1.1	-0.89
> O=C1NC(=O)N(Cc2ccco2)C(=O)/C1=C/C=C/c1ccco1
→ 1.6	4.4
> CCc1cccc(CC)c1NC(=S)N1CC2CC(C1)c1cccc(=O)n1C2 (stereo unspecified)
→ 1.6	2.5
> C=CCn1c(O)c(/C=N/N2CCOCC2)c(=O)[nH]c1=S
→ 1	-2.6
> COC(=O)C(O)(c1ccc(N(C)C(=O)c2cccs2)cc1)C(F)(F)F (stereo unspecified)
→ 0.52	1.2
> O=C1N(c2ccccc2)C(c2cccnc2)N2CCCN12 (stereo unspecified)
→ 0.6	-0.07
> S=C1CN=C(c2ccccc2Cl)c2cc(Cl)ccc2N1
→ 0.33	2
> CCCNS(=O)(=O)c1ccc(OCC(=O)N2CCN(Cc3ccc4c(c3)OCO4)CC2)cc1
→ 2.1	-2.9
> COC(=O)c1ccc(N2C(=O)CC(N3CCC(n4c(=O)[nH]c5ccccc54)CC3)C2=O)cc1 (stereo unspecified)
→ 1.3	-0.19
> Cc1nc2ccccc2c(=O)n1-c1cccc(O)c1
→ 0.58	0.41
> CCCCOCCCN1C(C)=CC(=C2C(=O)NC(=S)NC2=O)C=C1C
→ 0.14	1.4
> CC1=C(C(=O)Nc2ccccc2)SCCO1
→ 0.92	0.81
> O=c1[nH]c(=O)n(Cc2ccccc2)c(O)c1C=Nc1ccc(CN2CCOCC2)cc1
→ 0.79	0.02
> CN1CC[C@@]23CCCC[C@@H]2[C@@H]1Cc1ccc(O)cc13
→ 0.28	-1
> CC1CCN(C(=O)C(C)Cl)CC1 (stereo unspecified)
→ 0.65	-1.2
> Cc1ccc(C2N3CCCN23)cc1 (stereo unspecified)
→ 0.52	1.6
> COc1ccccc1C1C([N+](=O)[O-])=C(N)Oc2c1c(=O)oc1ccccc21 (stereo unspecified)
→ 0.95	-1.6
> CCC(=NC1CCN(Cc2ccccc2)CC1)c1c(O)[nH]c(=O)[nH]c1=O
→ 1.1	-0.9
> CNC(C(=O)c1ccccc1)C(OC(C)=O)c1cccc([N+](=O)[O-])c1 (stereo unspecified)
→ 0.02	3.5
> CCCCN1C(=O)NC(=O)C2(Cc3ccccc3N3CCOCC32)C1=O (stereo unspecified)
→ 0.14	0.63
> Cc1cc(C(=O)CS(=O)(=O)c2ccccc2)cc(C)c1OC(=O)N(C)C
→ 1.1	0.87
> Cc1ccc(-c2nc3ccccc3c(=O)n2-c2ncccc2C)cc1
→ 0.01	-0.22
> Cc1cccn2c(=O)c3c(nc12)N1CCCCC1C1(C3)C(=O)N(C)C(=O)N(C)C1=O (stereo unspecified)
→ 0.9	0.09
> COc1ccccc1OCC#CCN1CCCCCC1
→ 0.24	0.39
> O=C(O)CC[N+](=O)[O-]
→ 0.68	0.57
> CC(=O)N1CC(=O)Nc2ccc(Cl)cc2C1c1ccc(F)cc1 (stereo unspecified)
→ 0.32	-0.05
> O=c1c2ccccc2nc(/C=C/c2ccc(O)cc2)n1-c1cccc(O)c1
→ 0.69	-0.54
> CC(Cc1ccccc1)[n+]1cc(/N=C(\N)[O-])on1 (stereo unspecified)
→ 0.95	-2.1
> O=C(O)C(O)(c1ccccc1)C1CCCC1 (stereo unspecified)
→ 0.91	-0.03
> Clc1ccc(C2NCCc3[nH]cnc32)cc1 (stereo unspecified)
→ 0.84	2.2
> CC(=O)N(C1=NCCCS1)c1ccccc1F
→ 0.89	0.99
> CCn1cc(C=C2C(=O)N(C)C(=O)N(C)C2=O)c2ccccc21
→ 0.38	0.62
> COC(=O)C(O)(c1c[nH]c2ccccc12)C(F)(F)F (stereo unspecified)
→ 0.7	-1.2
> Cc1ccccc1-n1c(O)c(/C=C2/C(c3ccccc3)=Nc3ccccc32)c(=O)[nH]c1=O
→ 1.6	1.1
> c1ccc2c(CN3CCCCCCC3)c[nH]c2c1
→ 1.3	-1.8
> CC(C)(C)n1cccc1/C=C1\C(=O)NC(=O)N(c2ccccc2)C1=O
→ 1.3	-1.9
> COc1ccc(-n2c(O)c(C=NCCN(C)C)c(=O)[nH]c2=O)cc1
→ 0.02	-0.04
> Cn1c(O)c(C=Nc2ccc(Cl)cc2)c(=O)n(C)c1=O
→ 0.33	0.73
> Cc1cc(/C=C2/C(=O)NC(=O)N(Cc3ccco3)C2=O)c(C)n1-c1ccccc1
→ 1.9	-0.13
> O=C1NC(=S)N(c2ccc(F)cc2)C(=O)/C1=C/c1ccco1
→ 1	-0.07
> COc1cc2[nH]c(=O)n(-c3cccc(Cl)c3)c(=O)c2cc1OC
→ 1.8	2.9
> COc1ccc(C=O)cc1O
→ 0.03	0.57
> OC1CCCCC1N1CCC(c2ccccc2)CC1 (stereo unspecified)
→ 0.7	-0.61

(continued)
Second line of a record – KCNQ2 enhance	KCNQ2 enhance baseline
> O=C1CN=C(c2ccccc2)c2ccccc2N1Cc1ccc(C(F)(F)F)cc1
→ 0.3	-0.84
> CN1C(=O)C(=Cc2ccc(N3CCOCC3)c([N+](=O)[O-])c2)C(=O)N(C)C1=O
→ 1.1	-0.63
> Cc1ccccc1Cc1c(C)nc2nc(SCC(=O)N3CCC4(CC3)OCCO4)nn2c1C
→ 0.29	0
> O=C(c1cccc(C(F)(F)F)c1)C1CCCN(Cc2ncc[nH]2)C1 (stereo unspecified)
→ 1.5	-1.4
> Cc1cc(/C=C2\C(=O)NC(=O)N(c3ccc(F)cc3)C2=O)c(C)n1-c1ccc(C(=O)O)cc1
→ 0.73	-1.8
> Cc1ccc(N2C(=O)CC(=O)NC2=O)cc1
→ 0.07	-0.53
> NC(=O)CN1CCCC1=O
→ 0.63	0
> Cc1cc(=O)n(-c2ccccc2)n1-c1ccccc1
→ 2.2	0
> CC1=[N+]([O-])C2(N)CCc3nonc3C2(O)C1 (stereo unspecified)
→ 0.19	1.2
> CCOC(=O)C1CCCCC12C(C#N)=C(N)Oc1n[nH]c(C)c12 (stereo unspecified)
→ 1	-0.43
> CN1CCc2nc3sc(C(=O)NC(C)(C)C)c(N)c3cc2C1
→ 1.6	0.28
> COCCN(C(=O)COC(=O)Cc1ccccc1)c1c(N)n(Cc2ccccc2)c(=O)[nH]c1=O
→ 0.3	0.23
> C1=C(c2ccccc2)CCNC1
→ 0.4	1
> CCn1c(O)c(C=NCCc2c[nH]c3ccccc23)c(=O)[nH]c1=O
→ 1	0.07
> Cc1ccc2nc(N3CCC(C(=O)N4CCC5(CC4)OCCO5)CC3)sc2c1
→ 0.78	0.79
> CCc1ccc(N2C(=O)NC(=O)/C(=C/c3cccn3CCOc3ccc(C(C)CC)cc3)C2=O)cc1 (stereo unspecified)
→ 0.81	0.36
> CC(=O)OC1CC[C@]2(C#N)[C@H]3CC[C@]4(C)[C@H](C5C=CC(=O)O5)CCC4(O)C3CCC2(O)C1 (stereo partly specified)
→ 0.44	-0.65
> CCc1ccc2nc(N3CCC(C(=O)N4CCC5(CC4)OCCO5)CC3)sc2c1
→ 0.02	-0.26
> O=C(CCC(=O)N1CCOc2ccc(Cl)cc21)N1CCC2(CC1)OCCO2
→ 1.3	0
> CC12CN3CC(C)(CN(C1)C3c1ccncc1)C2=O (stereo unspecified)
→ 0.4	-0.21

Complete entries, looked up by structure. Screens in order: KCNQ2 enhance, KCNQ2 enhance baseline
Cc1ccccc1Cc1c(C)nc2nc(SCC(=O)N3CCC4(CC3)OCCO4)nn2c1C is listed with 0.29, 0
NC(=O)CN1CCCC1=O is listed with 0.63, 0
CC(=O)OC1CC[C@]2(C#N)[C@H]3CC[C@]4(C)[C@H](C5C=CC(=O)O5)CCC4(O)C3CCC2(O)C1 (stereo partly specified) is listed with 0.44, -0.65
CC12CN3CC(C)(CN(C1)C3c1ccncc1)C2=O (stereo unspecified) is listed with 0.4, -0.21
CCOC(=O)C1CCCCC12C(C#N)=C(N)Oc1n[nH]c(C)c12 (stereo unspecified) is listed with 1, -0.43

New compounds follow.
Second line of a record – KCNQ2 enhance	KCNQ2 enhance baseline
> C=CCn1c(O)c(C(CC)=Nc2ccc3c(c2)CCC3)c(=O)[nH]c1=O
→ 0.86	-1.9
> CCC(C)OC(=O)c1c(N)n(Cc2cccs2)c2nc3ccccc3nc12 (stereo unspecified)
→ 0.01	0.77
> CCN(CC)C(=O)c1ccc(NC(=O)Cn2nc(C)c3ccccc3c2=O)cc1
→ 0.66	1
> COc1ccc(CNCCc2ccc(Cl)cc2)c(OC)c1OC
→ 0.07	-0.12
> C#CC1(O)C=CC2C3CCC4=CC(=O)CCC4C3CCC21CC (stereo unspecified)
→ 0.96	0.38
> O=C(NC1CONC1=O)OCC(Cl)(Cl)Cl (stereo unspecified)
→ 1.2	-0.93
> CCCCn1c(O)c(C(CC)=Nc2ccc(C(=O)O)cc2)c(=O)[nH]c1=O
→ 0.48	-0.64
> CN1CCN(C(=O)COc2ccc(S(=O)(=O)N(C)Cc3ccccc3)cc2)CC1
→ 0.33	0.98
> CCCCCCC(=O)c1c(O)n(-c2ccccc2OC)c(=O)[nH]c1=O
→ 0.01	0.3
> CC(Cc1ccsc1)NCc1cn[nH]c1-c1ccc(F)cc1F (stereo unspecified)
→ 1	-1.7
> COc1cc(OC)c(OC)cc1/C=C1/C(=O)NC(=O)N(Cc2ccccc2)C1=O
→ 1.2	0.03
> N#CC1(c2ccccc2)CCN(C2CC(=O)N(c3ccc(F)cc3)C2=O)CC1 (stereo unspecified)
→ 1.1	-0.35
> FC(F)(F)c1ccccc1CNCCc1c[nH]c2ccccc12
→ 0.97	0.17
